Screening results as filed in PubChem BioAssay.
MT1-MMP act inh: inhibitors of human MT1-MMP activation; GFP/RFP ratio change, % at 20 µM; P50281; 0.061% of 360,000 active; HT1080 RFP-PRO-GFP cells, GFP/RFP ratio fluorescence, overnight; percent of plate control window, DMSO zero;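 active = GFP/RFP ratio change of at least 30% with cell ATP level not reduced by more than half and red fluorescence within 50% of control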; note: strong numbers were not always called active
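Assay system: HT1080 RFP-PRO-GFP cells | Dosing: 20 µM single dose, 1% DMSO | Incubation: Cells overnight before dosing, compound overnight, 37 °C, 5% CO2 | Evaluation: GFP/RFP fluorescence ratio | Control set: DMSO-only wells and HT1080 RFP-L50D-GFP cell wells as references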
HIV Env fusion: HIV envelope-mediated fusion inhibition | HeLa-JRFL Env/CEM21 cell fusion, luciferase | inhibition, % at 12.3 µM | 1.1% of 360,000 active | AID 651610;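 active = mean replicate inhibition score of at least 50 and every replicate individually at or above 50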;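 note: 0% = plate neutral controls and 100% = maraviroc near 300 nM; one replicate is shown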
MT1-MMP act inh RFP: recorded beside MT1-MMP act inh, whose call it bears; RFP signal change, %; measured here: RFP expression control read;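 0 = vehicle wells; hits needed this value within 50% of zero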
Numbers without * were called inactive; i = inactive. Only part of the results is shown, so the mix of outcomes need not match the whole.

SMILES | MT1-MMP act inh | MT1-MMP act inh RFP | HIV Env fusion
CC(C)C[C@@H](COCc1cccc(Cl)c1)N1CCN(C(=O)c2ccc(C(F)(F)F)cc2)CCC1=O | -4 | -9 | 57*
CCOc1ccc(CCN2C(=O)C(=O)N([C@@H](CC(C)C)CN3CCC[C@H]3CN3C(=O)C(=O)NC[C@@H]3Cc3ccc(O)cc3)C[C@@H]2Cc2ccccc2)cc1 | -2 | 2 | -74
COC(=O)C1=CN(c2ccc(C)cc2)C(N)=C(C#N)C1c1ccccc1F (configuration not stated) | 5 | 0 | 14
CC(C)C[C@H]1CN(CCCC[C@H]2CNC(=O)C(=O)N2CC2CCCCC2)C(=O)C(=O)N1CCc1ccc(O)cc1 | 3 | 5 | 20
O=C1Nc2ccccc2NC(c2ccc3c(c2)OCO3)=C1N(Cc1ccc(F)cc1)C(=O)c1ccco1 | 1 | -4 | 19
CCN(CC)c1ccc(/C=C2\CCC(/C=C(/C#N)C(=O)Nc3ccccc3F)=C2N2CCOCC2)cc1 | 62 | 54 | -3
O=C1NC[C@H](Cc2ccc(O)cc2)N(C[C@@H]2CCCN2C[C@H](Cc2ccc(O)cc2)N2C[C@H](Cc3ccccc3)N(CC3CCCCC3)C(=O)C2=O)C1=O | 1 | 8 | -8
CCCC(CNC(C)=O)(C1=CCCCC1)c1ccccc1 (configuration not stated) | -5 | 0 | 16
Cc1cc2c(cc1C)-n1nnnc1C(N1CCN(c3ccccn3)CC1)C(c1ccc3c(c1)OCO3)=N2 (configuration not stated) | -4 | -1 | -17
O=S(=O)(NN=Cc1cccc(Cl)c1)c1ccccc1 | 3 | 2 | -23
CN1C(=O)C(c2cn(C)c3ccccc23)(c2cn(C)c3ccccc23)c2cc(Br)ccc21 | 1 | -1 | 9
CCCCCNC(=O)C(c1ccncc1)n1c(=O)c(-c2cc3ccccc3[nH]2)nc2ccccc21 (configuration not stated) | -8 | -6 | 75*
COC(=O)[C@@]12C[C@@H](CC(=O)NCc3cccs3)C(=O)N(Cc3ccccc3)C1=CCC(C)(C)C2 | -4 | -9 | -1
COc1ccc2c(c1)[C@]1(C[C@H](O)CO1)C(=O)N2C | 2 | 5 | -3
COc1ccc2c(c1)c(=Cc1ccc(N(C)C)cc1)c1cc(-c3ccccc3)[n+](C)n12 | -15 | 50 | -16
CCOC(=O)[C@]12CCCC=C1N(Cc1ccc3c(c1)OCO3)C(=O)[C@H](CC(=O)NCC13CC4CC(CC(C4)C1)C3)C2 | -16 | -18 | 20
Nc1[nH]c(C(=O)c2ccccc2)c(-c2ccccc2Br)c1C(=O)NCCc1c[nH]c2ccccc12 | 2 | -10 | -28
C=C1C[C@@H]2C[C@@H]2CN(S(=O)(=O)c2ccc(C)cc2)[C@@H]1c1ccco1 | 2 | -1 | 25
CNc1ncnc2c1ncn2[C@H]1CN(CCc2ccccc2)C[C@@H](CO)O1 | 3 | 6 | 16
COC(=O)C(C(=O)OC)c1ccccc1CNS(=O)(=O)c1ccc(C)cc1 | 0 | 6 | 6
O=c1cccc(-c2ccc3ccccc3c2)o1 | 0 | 4 | -35
CCc1c(N=O)c(-c2ccccc2)n(O)[n+]1[O-] | 4 | 2 | -7
CCCCCn1nnnc1C1c2ccccc2C(=O)N1Cc1ccco1 (configuration not stated) | 1 | 1 | -5
O=C(C(=O)N1CCN(CCN2CCOCC2)CC1)c1ccccc1 | 4 | 7 | 20
O=S1(=O)CC(N2CCCCC2)C1CN1CCCCC1 (configuration not stated) | -5 | 1 | 14
CCc1noc(C)c1C(=O)OCC(=O)c1ccc(NC(=O)CC(C)C)cc1 | 0 | 3 | 12
O=C(C[C@@H]1C=C[C@H](NS(=O)(=O)c2ccccc2F)[C@@H](CO)O1)NCCCN1CCOCC1 | -2 | 3 | 0
CCCCN(C=O)c1c(CC)nc2c(OCCn3cccc3)cccn12 | -1 | 1 | -13
N#Cc1c2c(c(Nc3ccc(F)cc3)n3c1nc1ccccc13)CCCC2 | -7 | -4 | -19
S=C(Cc1ccccc1)N1CCOCC1 | 3 | 0 | 6
COC(=O)[C@@]12C[C@@H](CC(=O)NCC3CCCCC3)C(=O)N(Cc3cccc4ccccc34)C1=CCC(C)(C)C2 | -38 | -32 | -11
COc1ccc(C(=O)OCCN2C(=O)c3ccccc3C2=O)cc1OC | -2 | 1 | -13
C[C@@]12CC[C@@H](C3=C(CCC3)C1)N2c1ccccc1 | 8 | 11 | -22
CNC(=O)C[C@H]1C(=O)N(C2CCCCC2)C[C@@H]1C | 0 | 7 | -22
COC(=O)/C=C1\OCc2cc(OCc3ccccc3)ccc21 | 4 | -2 | -45
COc1ccc(CCN2C(=O)CCC2(C)c2nnnn2-c2c(C)cccc2C)cc1OC (configuration not stated) | -1 | 3 | -33
COC(=O)C1C(OC)=CC(=O)C2CCCCC21 (configuration not stated) | -5 | -1 | 57*
Cc1ccc2cc3c(=O)n(C)cc(C=O)c3nc2c1 | -2 | 3 | -3
CC12CCC3C(=CCc4cc(O)ccc43)C1CC(=NO)C2O (configuration not stated) | -4 | 1 | -29
COc1ccc(-c2cc(=O)c3c(O)c(OC)c(OC)c(OC)c3o2)cc1 | -3 | -3 | -104
CC(=O)Oc1cccc2c1C(=O)C1CC=CC(OC(C)=O)C1C2=O (configuration not stated) | -8 | 6 | -4
CCOc1ccc(S(=O)(=O)NCc2cccs2)cc1C(C)C | 7 | -8 | -43
Cc1cccc(S(=O)(=O)NC(=O)C2(C)CCN2C(=O)c2ccc(C3CCCCC3)cc2)c1 (configuration not stated) | 11 | 2 | 24
CCc1ccc(NC2=CC(=O)C(=O)c3ccccc32)cc1 | 3 | -16 | 6
CCCCCCCCN1C(=O)[C@H](CC(=O)N2CCCCC2)C[C@@]2(C(=O)OC)CCCCC=C12 | -8 | -15 | 23
O=C(C=Cc1ccccc1)NCCNC(=O)C=Cc1ccccc1 | 3 | 2 | -25
O=C(CC1c2ccccc2C=C(c2ccsc2)N1c1ccc(-c2cccnc2)cc1)C1CC1 (configuration not stated) | -8 | -10 | -15
C[C@H](O)[C@@H]1CN2CCc3c([nH]c4ccc(-c5ccc6c(c5)OCO6)cc34)[C@@H]2C[C@@H]1N(C)C(=O)NC1CCCCC1 | 6 | -10 | -12
O=S1(=O)CCN(Cc2ccccc2)CC1 | 7 | 8 | -2
CCOC(=O)[C@]12CCC=C1N(Cc1ccc3c(c1)OCO3)C(=O)[C@H](CC(=O)N1CCSCC1)C2 | 0 | 0 | -78

Other entries follow.
SMILES | MT1-MMP act inh | MT1-MMP act inh RFP | HIV Env fusion
C(=NNC1=NCCN1)c1ccnc2ccccc12 | 3 | 8 | -18
COc1cccc(C2=Cc3ccc(F)cc3C(CC(C)=O)N2c2ccc(-c3cc(OC)c(OC)c(OC)c3)cc2)c1 (configuration not stated) | 0 | 5 | 10
O=C(CNC(=O)OCc1ccccc1)NC(Cc1cnc[nH]1)C(=O)O (configuration not stated) | -1 | 1 | -12
O=S1(=O)CC(N2CC=CC2)CN1Cc1cn(Cc2cccc(C(F)(F)F)c2)nn1 (configuration not stated) | 0 | 1 | -13
COC(=O)c1c(N)[nH]c(C(=O)c2ccccc2)c1-c1ccc(Cl)cc1 | 2 | -1 | 8
CCOC(=O)CCC(NC(=O)c1ccc(Nc2nc3ccccc3nc2C(=O)OCC)cc1)C(=O)OCC (configuration not stated) | 3 | 2 | 5
CCOC(=O)C1CCCN(C(=O)c2ccc(OC)c(OC)c2)CC1 (configuration not stated) | 2 | 4 | -15
Cc1ccc(NC(=O)CSCC(=O)N(C)CC(=O)Nc2c(C)cccc2C)cc1 | 3 | 1 | -15
CCOc1ccc(NC(=O)N(O)C2(C#N)CCCCC2)cc1 | 1 | 1 | -9
CCOP1(=O)C=C(Sc2ccc([N+](=O)[O-])cc2[N+](=O)[O-])C(C)(C)O1 (configuration not stated) | -4 | 0 | i
O=S1(=O)CC(N2CCN(CCO)CC2)CN1Cc1cn(Cc2ccc(F)cc2)nn1 (configuration not stated) | 2 | 8 | 15
O=C(NCc1ccccc1Cl)[C@H]1CCCN1C(=O)[C@H]1CCCN1C(=O)c1ccc(Cl)cc1 | 6 | 5 | 9
CC(C)C[C@H]1CN([C@@H](Cc2ccc(O)cc2)CN2CCC[C@H]2CN2C(=O)C(=O)NC[C@@H]2Cc2ccccc2)C(=O)C(=O)N1CCc1ccccc1 | 1 | 4 | 5
CC(C)c1ccc([C@@H]2O[C@H](CCc3ccccc3)Cc3[nH][nH]c(=O)c32)cc1 | 3 | 1 | 8
O=C(COC(=O)/C=C/c1ccc(C(F)(F)F)cc1)NC(=O)NCc1ccco1 | -6 | 0 | -7
COC(=O)C(=Cc1ccncc1)c1cccc2ccccc12 | 0 | 2 | -3
N#CC(=Nc1cccc(F)c1)C1=C(O)c2ccccc2C1=O | -6 | 8 | 11
COc1cc(OC)cc(C2=Cc3ccccc3C(CC(=O)c3ccco3)N2c2ccc(-c3cccnc3)cc2)c1 (configuration not stated) | -1 | 4 | 22
Oc1cccc(C=NN=C2c3ccccc3-c3ccccc32)c1 | -1 | 1 | -5
O=C(C=CC(=O)Nc1ccc(F)cc1F)Nc1ccc(F)cc1F | 2 | 7 | -2

Structural class, the compounds so far containing four or more nitrogen atoms (19)
SMILES | MT1-MMP act inh | MT1-MMP act inh RFP | HIV Env fusion
CCOc1ccc(CCN2C(=O)C(=O)N([C@@H](CC(C)C)CN3CCC[C@H]3CN3C(=O)C(=O)NC[C@@H]3Cc3ccc(O)cc3)C[C@@H]2Cc2ccccc2)cc1 | -2 | 2 | -74
CC(C)C[C@H]1CN(CCCC[C@H]2CNC(=O)C(=O)N2CC2CCCCC2)C(=O)C(=O)N1CCc1ccc(O)cc1 | 3 | 5 | 20
CCN(CC)c1ccc(/C=C2\CCC(/C=C(/C#N)C(=O)Nc3ccccc3F)=C2N2CCOCC2)cc1 | 62 | 54 | -3
O=C1NC[C@H](Cc2ccc(O)cc2)N(C[C@@H]2CCCN2C[C@H](Cc2ccc(O)cc2)N2C[C@H](Cc3ccccc3)N(CC3CCCCC3)C(=O)C2=O)C1=O | 1 | 8 | -8
Cc1cc2c(cc1C)-n1nnnc1C(N1CCN(c3ccccn3)CC1)C(c1ccc3c(c1)OCO3)=N2 (configuration not stated) | -4 | -1 | -17
CCCCCNC(=O)C(c1ccncc1)n1c(=O)c(-c2cc3ccccc3[nH]2)nc2ccccc21 (configuration not stated) | -8 | -6 | 75*
Nc1[nH]c(C(=O)c2ccccc2)c(-c2ccccc2Br)c1C(=O)NCCc1c[nH]c2ccccc12 | 2 | -10 | -28
CNc1ncnc2c1ncn2[C@H]1CN(CCc2ccccc2)C[C@@H](CO)O1 | 3 | 6 | 16
CCCCCn1nnnc1C1c2ccccc2C(=O)N1Cc1ccco1 (configuration not stated) | 1 | 1 | -5
CCCCN(C=O)c1c(CC)nc2c(OCCn3cccc3)cccn12 | -1 | 1 | -13
N#Cc1c2c(c(Nc3ccc(F)cc3)n3c1nc1ccccc13)CCCC2 | -7 | -4 | -19
COc1ccc(CCN2C(=O)CCC2(C)c2nnnn2-c2c(C)cccc2C)cc1OC (configuration not stated) | -1 | 3 | -33
C[C@H](O)[C@@H]1CN2CCc3c([nH]c4ccc(-c5ccc6c(c5)OCO6)cc34)[C@@H]2C[C@@H]1N(C)C(=O)NC1CCCCC1 | 6 | -10 | -12
C(=NNC1=NCCN1)c1ccnc2ccccc12 | 3 | 8 | -18
O=C(CNC(=O)OCc1ccccc1)NC(Cc1cnc[nH]1)C(=O)O (configuration not stated) | -1 | 1 | -12
O=S1(=O)CC(N2CC=CC2)CN1Cc1cn(Cc2cccc(C(F)(F)F)c2)nn1 (configuration not stated) | 0 | 1 | -13
CCOC(=O)CCC(NC(=O)c1ccc(Nc2nc3ccccc3nc2C(=O)OCC)cc1)C(=O)OCC (configuration not stated) | 3 | 2 | 5
O=S1(=O)CC(N2CCN(CCO)CC2)CN1Cc1cn(Cc2ccc(F)cc2)nn1 (configuration not stated) | 2 | 8 | 15
CC(C)C[C@H]1CN([C@@H](Cc2ccc(O)cc2)CN2CCC[C@H]2CN2C(=O)C(=O)NC[C@@H]2Cc2ccccc2)C(=O)C(=O)N1CCc1ccccc1 | 1 | 4 | 5
